# miR-21 FLuc: qHTS Assay for Modulators of miRNAs and/orActivators of miR-21; HeLa miR-21 FLuc reporter, luciferase, 48 h; Potency, µM (doses to about 38.3 µM), inactives show at the top dose reporter change, positive = more light; 340,000 tested, under 10 active; AID 2288, 2010; active = well fitted rising curve with a large enough effect; inconclusive = small, poorly fitted or top-dose-only effect; inactive = no such curve, though single readings can be large or run the other way;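 also: % of control where 0% means no effect; miR-21 action dims this reporter so a rising signal means less miR-21 action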
#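 HeLa cells endogenously expressing miR-21, stably carrying CMV-driven firefly luciferase with a downstream miR-21 binding site, 2000 cells/well. Titrations up to approximately 40 uM, 48 hours; luciferase luminescence read.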
# Rango dissoc inh: qHTS Assay for Inhibitors of RanGTP induced Rango (Ran-regulated importin-beta cargo) - Importin beta complex dissociation. 340,000 tested, 0.071% active. Biochemical FRET Rango-importin beta, RanGTP-induced dissociation. Snurportin-1 (Homo sapiens) + GTP-binding nuclear protein Ran (Homo sapiens) + Importin …. Potency, µM (titrated, usually from 46.1 µM), inactives show top-dose activity change, negative = inhibition; active means falling FRET ratio curve, often poorly fitted, with flat reads before Ran was added; inconclusive means other falling curves, or compound fluorescence or quenching; inactive means flat or rising ratio curve;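 also: potency is read from the fitted curve at half-maximal effect; % of control where 0% means no effect; nearly all actives have a fitted effect of over 45% in size; -100% = wells without RanGTP and RCC1; the record marks most hits as doubtful in a second field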
#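 Recombinant Rango FRET biosensor (EYFP–snurportin 1 IBB–cerulean CFP10) at 0.1 uM premixed with 0.25 uM importin beta in PBS, 1 mM DTT, 0.02% Tween-20, 0.1% BSA. Compound added 5 min; RanGTP-RCC1 (0.6 uM Ran, 2 mM GTP, 0.2 uM RCC1) then triggers release, read at 45 min.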
# Rango-impB inh: qHTS Assay for Inhibitors of Rango (Ran-regulated importin-beta cargo) - Importin beta complex formation; Rango CFP/YFP FRET sensor + importin beta, 45 min; Potency, µM (series often up to 92.2 µM), for inactives: top-dose inhibition of complex formation; Importin subunit beta-1 (Homo sapiens), Q14974; 340,000 tested, 0.031% active; active = rising FRET ratio curve, often small or poorly fitted; inconclusive = mostly compound fluorescence or quenching in the first reads; inactive = flat curves in all reads;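 also: potency is read from the fitted curve at half-maximal effect; 0% = DMSO wells and 100% = buffer wells lacking importin beta; nearly all actives have a fitted effect of over 15% in size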
# Target sequence (Q14974 whole entry, looked up): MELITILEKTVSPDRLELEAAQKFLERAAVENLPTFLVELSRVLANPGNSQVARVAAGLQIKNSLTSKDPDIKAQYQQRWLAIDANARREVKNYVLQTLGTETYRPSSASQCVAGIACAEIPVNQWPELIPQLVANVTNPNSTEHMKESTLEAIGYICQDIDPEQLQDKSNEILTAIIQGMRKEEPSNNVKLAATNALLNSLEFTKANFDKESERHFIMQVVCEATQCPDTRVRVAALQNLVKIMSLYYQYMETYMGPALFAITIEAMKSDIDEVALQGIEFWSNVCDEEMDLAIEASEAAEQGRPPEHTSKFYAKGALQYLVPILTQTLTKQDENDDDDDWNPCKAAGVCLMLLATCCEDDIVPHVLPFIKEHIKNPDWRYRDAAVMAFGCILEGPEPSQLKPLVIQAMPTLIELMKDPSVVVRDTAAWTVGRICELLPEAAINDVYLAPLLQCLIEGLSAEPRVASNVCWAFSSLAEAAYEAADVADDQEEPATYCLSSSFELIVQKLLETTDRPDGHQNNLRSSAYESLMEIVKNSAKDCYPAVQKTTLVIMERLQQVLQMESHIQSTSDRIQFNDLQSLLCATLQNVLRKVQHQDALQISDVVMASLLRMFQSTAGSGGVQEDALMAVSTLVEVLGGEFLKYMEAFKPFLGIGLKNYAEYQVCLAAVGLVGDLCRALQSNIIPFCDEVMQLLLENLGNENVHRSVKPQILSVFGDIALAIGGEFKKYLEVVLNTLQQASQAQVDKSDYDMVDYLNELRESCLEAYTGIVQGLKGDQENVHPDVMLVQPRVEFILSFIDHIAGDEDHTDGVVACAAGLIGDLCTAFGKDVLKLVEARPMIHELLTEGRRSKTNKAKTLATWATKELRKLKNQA
#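 Inhibition scored from the CFP 486 nm/YFP 530 nm FRET ratio 45 min after adding 0.125 microM importin beta to 50 nM Rango biosensor preincubated 5 min with compound (room temperature, PBS with DTT, Tween-20, BSA). No-importin wells as positive control.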
# GLA inh pH 4.5: qHTS Assay for Inhibitors of Human alpha-Galactosidase at pH 4.5; Alpha-galactosidase A (Homo sapiens), P06280; purified enzyme, 4-MU-alpha-Gal fluorescence, pH 4.5; activity change, negative = inhibition, % at 105 µM; 230,000 tested, under 10 active; AID 1467, 2008; inconclusive = small, poorly fitted or top-dose-only inhibition, or a rising curve; inactive = flat fitted curve, though single readings scatter; no compound was filed as active;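 also: 0% = full activity with enzyme and -100% = basal without enzyme; dose as in the result columns while the protocol names 77 µM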
# Active calls of the source: *; ? = inconclusive; . = not tested or not shown; & = joins results of further samples. This is a subset; rates above refer to the full screens.
# Preview (5 entries):
SMILES	miR-21 FLuc	Rango dissoc inh	Rango-impB inh	GLA inh pH 4.5
COc1cc(C(=O)Nc2ccc(S(=O)(=O)N3CCc4ccccc43)cc2)cc(OC)c1OC	30%	14%	-0.5%	-9
COc1ccc(S(=O)(=O)N2CCOCC2)cc1NC(=O)COC(=O)CCOc1ccc(C)cc1	.	-11%	-0.1%	.
CC(C)OCCCNC(=O)c1cccs1	-12%	-9%	1.9%	1
N#Cc1c(C(F)(F)F)cc(C2CC2)[nH]c1=O	-5%	-13%	-2.1%	?
COC(=O)CCC(=O)OC1(C)C(=O)C=C2C=C(C3CC3)N(C3CCCC3)C=C2C1=O (stereo not given)	-3%	-13%	?	3&0

# The listing, from the first entry:
SMILES	miR-21 FLuc	Rango dissoc inh	Rango-impB inh	GLA inh pH 4.5
COc1cc(C(=O)Nc2ccc(S(=O)(=O)N3CCc4ccccc43)cc2)cc(OC)c1OC	30%	14%	-0.5%	-9
COc1ccc(S(=O)(=O)N2CCOCC2)cc1NC(=O)COC(=O)CCOc1ccc(C)cc1	.	-11%	-0.1%	.
CC(C)OCCCNC(=O)c1cccs1	-12%	-9%	1.9%	1
N#Cc1c(C(F)(F)F)cc(C2CC2)[nH]c1=O	-5%	-13%	-2.1%	?
COC(=O)CCC(=O)OC1(C)C(=O)C=C2C=C(C3CC3)N(C3CCCC3)C=C2C1=O (stereo not given)	-3%	-13%	?	3&0
O=C(OCN1C(=O)c2ccccc2C1=O)c1cccs1	-2%	-6%	-1.5%	-8
CCOC(=O)c1ccc(NC(=O)CSc2nc(=O)n3cccc(C)c3n2)cc1	.	11%	0.1%	.
COC(=O)[C@H](CCSC)NC(=O)NCc1ccccn1	0%	-23%	0.0%	10
COc1ccc(C(=O)/C=C/Nc2ccc([N+](=O)[O-])cc2C)cc1OC	-16%	?	?	-5
COC(=O)CCCC(=O)NC1CCCN(C2Cc3ccccc3C2)C1 (stereo not given)	2%	4%	-0.3%	.
COc1ccc(Br)c(C(=O)Nc2nc3ccccc3[nH]2)c1	-32%	25%	-0.2%	.
CN(C)N1C(=O)C2C3C=CC(O3)C2C1=O (stereo not given)	.	-12%	-3.3%	.
CCOC(=O)N1CCC(n2c(SCC(=O)OCc3ccccc3)nc3ccsc3c2=O)CC1	12%	13%	7.2%	-6
CC(=O)c1ccc(NC(=O)COC(=O)CCC2CCCC2)cc1	.	-1%	?	.
S=C(NCc1cccc(Cl)c1)NCc1ccco1	1%	-3%	-0.3%	.
CCOC(=O)N1CCN(C(c2ccc(C(C)C)cc2)c2sc3nc(C)nn3c2O)CC1 (stereo not given)	1%	-1%	-4.8%	8
CCOc1ccccc1-n1c(SCC(N)=O)nnc1-c1cccnc1	-2%	-16%	-2.7%	-2
O=C(O)c1ccc(NC(=O)C2CCCCC2)cc1	-10%	-6%	?	1
O=C(C1CC(c2ccc(F)cc2)=NO1)N1CCc2ccccc2C1 (stereo not given)	-31%	4%	-5.2%	-7
CCCNc1nc(Cl)nc(NCc2cccnc2)n1	-3%	6%	-2.2%	-1
CSc1ccc(NC(=O)NCCCN2CCC(Cc3ccccc3)CC2)cc1	27%	9%	-0.1%	.
Cc1nc2ccc(S(=O)(=O)NCC(=O)NCCN3CCCCC3C)cc2s1 (stereo not given)	-1%	-9%	-2.7%	4
Cc1ccc2c(c1)N(CC(=O)NC1CCCC1)C(=O)c1cccnc1O2	-1%	20%	0.2%	.
O=C1CCCN2N=C(SCC(=O)Nc3nccs3)SC2=N1	0%	-7%	-2.0%	-2
CC(=O)c1sc2nsc(SCCN3CCOCC3)c2c1N	-34%	?	?	6
COc1cc(S(=O)(=O)NCCCN2CCOCC2)ccc1-n1cnnn1	5%	-4%	-2.0%	-12
Cn1ccc(=Nc2ccc(NC(=O)c3ccc(N=c4ccn(C)c5ccc([N+](=O)[O-])cc45)cc3)cc2)cc1	29%	1%	0.6%	-5
CCCC(NC(=O)COc1cc2c(c3oc(=O)cc(C)c13)CCC(C)(C)O2)C(=O)O (stereo not given)	1%	1%	0.6%	.
CC(Sc1ncnc2ccccc12)C(=O)Nc1ccc2c(c1)OCO2 (stereo not given)	-10%	-6%	-2.1%	4
COCC(=O)NC1CCN(C(=O)Nc2ccc(Br)cc2)CC1	2%	4%	1.4%	2
CC(C)n1ncc(C(N)=O)c1N	-4%	7%	4.3%	-3
CC(=O)N1CCN(C(=O)c2cc3ccccc3o2)CC1	-7%	-4%	-1.0%	.
O=[N+]([O-])c1cc(F)cc(F)c1Nc1cc(F)cc(F)c1	.	0%	0.5%	.
CCN(CCN(C)C)C(=O)c1ccc2c(c1NCCO)C(=O)c1ccccc1C2=O	10%	-6%	0.0%	1
O=[N+]([O-])c1ccc(N2CCCCC2)cn1	-33%	0%	-0.1%	-3
COCCn1c(C)cc(/C=C2/SC(=O)N(CC(=O)N3CCCC3)C2=O)c1C	-8%	?	-6.4%	.
CC1CCN(c2nc(-c3ccco3)c3c(c2C#N)CC(C)(C)OC3)CC1	0%	?	?	10
COc1cc(C(=O)Nc2cc(OC)c(OC)c(OC)c2)ccc1OCc1c(C)noc1C	.	-9%	-0.4%	.
Cc1cnn(CCC(=O)NNC(=S)Nc2ccc(F)cc2)c1	-3%	-3%	1.0%	7
COc1ccccc1NC(=S)N(CCCN1CCOCC1)Cc1ccccn1	-4%	-4%	0.2%	-3
N#Cc1cccc(NC(=O)CCn2ccnc2)c1	-6%	0%	0.0%	0
CCc1nnc(NC(=O)CSc2nnc(-c3ccco3)n2C)s1	-1%	-16%	-1.0%	7
NC(=O)C1CCN(C(=O)COc2ccc3ccc(=O)oc3c2)CC1	0%	9%	?	.
CSCCC(NC(=O)c1ccc(Cl)cc1Cl)C(=O)OC1CCCCC1=O (stereo not given)	.	-8%	1.1%	.
CCC(C)NC(=O)CSc1ccc(S(=O)(=O)N2CCN(Cc3ccccc3)CC2)cn1 (stereo not given)	.	1%	-7.0%	.
COc1ccc(-c2nsc3c(N4CCCCC4C)ncnc23)cc1 (stereo not given)	13%	-10%	-2.3%	5
Cc1ccc(NC(=O)CCN2C(=O)NC3(CCCC3)C2=O)cc1S(=O)(=O)N1CCOCC1	.	28%	-0.3%	.
CC(=O)NCCC(Cc1ccccc1)c1ccco1 (stereo not given)	-35%	-6%	-3.5%	-6
COc1cccc(Cn2nnc(C(=O)NCc3ccc4c(c3)OCO4)c2N)c1	-5%	4%	-3.0%	4
Nc1nc(-c2ccco2)nn1S(=O)(=O)c1ccccc1	0%	2%	-0.9%	-8
COc1ccc(CCNC(=O)c2ccccc2OCc2ccccc2)cc1	3%	0%	1.2%	.
CN(c1ccccc1)S(=O)(=O)c1ccc(C(=O)N2CCN(c3ccccc3Cl)CC2)cc1	.	34%	0.6%	.
COc1ccc(CCNC(=O)C(Sc2ccccn2)c2ccccc2)cc1OC (stereo not given)	12%	8%	4.7%	-7
O=C(N=C1SC2CS(=O)(=O)CC2N1c1cccc(Cl)c1Cl)C1CC1 (stereo not given)	-1%	4%	0.9%	.
Cc1ccccc1Nc1nc(NCc2ccco2)c2ccccc2n1	2%	-11%	?	2
O=C(CCc1cnccn1)NC1CCCc2c1cnn2-c1ccc(F)cc1F (stereo not given)	-3%	-18%	-3.3%	1

# (list continues)
SMILES	miR-21 FLuc	Rango dissoc inh	Rango-impB inh	GLA inh pH 4.5
COc1ccc2[nH]c(=O)c(CN(c3ccccc3)S(=O)(=O)c3ccccc3)cc2c1	-4%	21%	0.7%	.
CCOc1ccc(C(=O)Nc2ccncc2)cc1	-19%	0%	0.0%	6
Cc1ccc(-n2nnnc2SCc2nnc(-c3ccccc3Br)o2)c(C)c1	-2%	0%	0.9%	3
N#Cc1c(SCC(=O)Nc2nc3ccccc3s2)sc2c(O)cc(=O)[nH]c12	.	-13%	?	.
Cn1cc(CN2CCN(Cc3cccnc3)CC2)c(-c2ccc3c(c2)OCCO3)n1	-18%	1%	-2.3%	-2
CC(=O)c1cc2c(cc1NC(=O)CN1CCN(c3ccc(F)cc3)CC1)OCO2	-2%	37%	4.4%	-6
COc1ccc(-c2[nH]ncc2CN2C[C@@H]3CCC[C@H]2C3)c(F)c1	-5%	12%	-3.2%	-1
Cc1cccc(OCc2nc(C#N)c(N3CCCC3)o2)c1	-1%	1%	0.5%	-9
CCOc1cc(CNc2ccc(N3CCCC3)cc2)cc(Cl)c1OC	-4%	?	1.4%	-5
N#C/C(=C\c1cccc([N+](=O)[O-])c1)C(=O)Nc1cccnc1	3%	1%	-1.5%	-1
COc1c(C)cc(C(=O)C2CCCN(C(=O)/C=C/c3ccccn3)C2)cc1C (stereo not given)	-17%	2%	1.8%	3
CCOC(=O)c1c(C(C#N)C#N)cc(C)nc1C	4%	-6%	-1.9%	4
COc1ccc2c(C(=O)c3ccc(Cl)cc3)n(CCCC(N)=O)[n+]([O-])c2c1	.	-17%	?	.
Cc1ccc(S(=O)(=O)NCCCNS(=O)(=O)c2ccccc2[N+](=O)[O-])cc1	6%	-5%	1.1%	.
COc1ccccc1CCC(=O)Nc1nccs1	-3%	22%	-2.5%	.
CCCCSc1nc(C)cc(C)c1S(=O)(=O)c1ccccc1C	3%	-5%	3.5%	-10
COc1cccc(CNC(=O)C2CCN(c3nn4c(=O)cc(C)nc4s3)CC2)c1	-7%&2%	-18%	-2.2%	.
C#CCOCCOCCOCCNc1nc(N2CCN(C(=O)[C@H](CCC(=O)O)n3cc(C(N)Cc4ccc(O)cc4)nn3)CC2)nc(N2CCN(C(=O)[C@H](Cc3cc4ccccc4[nH]3)n3cc(C(N)CC(C)C)nn3)CC2)n1 (stereo not given in full)	-1%	.	.	3
O=C(Nc1ccc(S(=O)(=O)N2CCCCC2)cc1)c1ccco1	-10%	?	-1.2%	.
CCn1cc(Br)c(C(=O)N(C)Cc2ccccc2)n1	-6%	0%	-1.1%	-2
COc1ccc(/C=N/NC(=O)c2ccc(Br)o2)cc1Cn1cc([N+](=O)[O-])cn1	-12%	1%	0.3%	7
O=C(NCCN1CCOCC1)C(=O)NCC1OCCN1C(=O)c1ccc(Cl)cc1 (stereo not given)	-2%	6%	0.3%	5
CC1CCCC(NC(=O)COC(=O)/C=C/c2ccco2)C1C (stereo not given)	.	-19%	?	.
O=C(CCNC(=O)c1ccccc1)N=Nc1c(O)[nH]c2ccccc12	-12%	.	.	0
CCOCCCNC(=O)c1ccc(Br)cc1	-36%	10%	0.3%	5
CC(=O)CCc1oc2ccc(C)cc2c1-c1ccccc1	-1%	-6%	1.6%	2
NC(=O)c1ccc(SCC(=O)OCC(=O)NC2CCCCCCC2)c([N+](=O)[O-])c1	.	9%	-0.6%	.
O=c1[nH]c(=O)n([C@H]2C[C@H](O)[C@@H](CO)O2)cc1F	?	17%	0.8%	-2&-6&-5
CC(C)CC(C(=O)NCC1CCCO1)N(C(=O)Cn1nnc(-c2ccc(F)cc2)n1)c1ccccc1F (stereo not given)	0%	-4%	2.4%	-10
O=C(COC(=O)C(Cc1ccccc1)NC(=O)c1ccccc1)c1ccccc1 (stereo not given)	0%	6%	?	0
O=C(CCC(=O)N/N=C/c1ccc(Br)s1)NCc1ccccc1	-7%	-6%	3.1%	5
COc1cc(C(=O)NCc2ccc(-c3nc4ccccc4o3)cc2)cc(OC)c1OC	-19%	-2%	-2.5%	9
Cc1nnc2ccc(-c3ccc(NS(=O)(=O)c4ccc(Cl)s4)cc3)nn12	.	?	?	.
